RanGTP-Imp inh – inhibitors of RanGTP-importin-beta interaction, primary screen, biochemical, FRET, CFP-Ran, YFP-importin-beta, homogeneous. cell-free CFP-Ran/YFP-importin-beta FRET ratio. inhibition, % (no concentration beside the values). hit rate 1.1% among 300,000. AID 2216;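 active means most replicates above 15%; inconclusive means exactly half above 15%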;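 further: 0% = DMSO wells and 100% = Ran loaded with GDP instead of GTP; wells of about 40 µL received 100 nL stock; the first replicate is given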
Beta apoptosis – blocks beta cell apoptosis. protection from apoptosis, % (no concentration beside the values). hit rate 0.8% among 300,000. INS-1E cytokine-induced death, ATP luminescence, 48 h; percent of positive-control rescue, neutral wells zero;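 active means all replicates at 75% or more, or half of them and the mean; inconclusive means half reach 75% but not the mean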;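 further: 0% = cytokine-treated negative control wells and 100% = positive control rescue; higher means more ATP so stronger rescue from cytokine killing; wells of about 40 µL received 100 nL stock; the first replicate is given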
AF4-AF9 inh – blocks AF4 peptide binding to human AF9 | inhibition, % at 10 µM | AlphaScreen, biotin-AF4 peptide binding to FLAG-AF9 | hit rate 0.47% among 350,000 | P42568;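 active means every replicate reaching a set inhibition limit, whatever the replicate mean, cut at about 25% in these data; inconclusive means mean inhibition reaches that limit but some replicates miss it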;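 further: 0% = plate neutral control median and 100% = total signal loss; the record names both 10 and 1 µM as test concentration; the first replicate is given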
Target sequence (P42568 whole entry, looked up): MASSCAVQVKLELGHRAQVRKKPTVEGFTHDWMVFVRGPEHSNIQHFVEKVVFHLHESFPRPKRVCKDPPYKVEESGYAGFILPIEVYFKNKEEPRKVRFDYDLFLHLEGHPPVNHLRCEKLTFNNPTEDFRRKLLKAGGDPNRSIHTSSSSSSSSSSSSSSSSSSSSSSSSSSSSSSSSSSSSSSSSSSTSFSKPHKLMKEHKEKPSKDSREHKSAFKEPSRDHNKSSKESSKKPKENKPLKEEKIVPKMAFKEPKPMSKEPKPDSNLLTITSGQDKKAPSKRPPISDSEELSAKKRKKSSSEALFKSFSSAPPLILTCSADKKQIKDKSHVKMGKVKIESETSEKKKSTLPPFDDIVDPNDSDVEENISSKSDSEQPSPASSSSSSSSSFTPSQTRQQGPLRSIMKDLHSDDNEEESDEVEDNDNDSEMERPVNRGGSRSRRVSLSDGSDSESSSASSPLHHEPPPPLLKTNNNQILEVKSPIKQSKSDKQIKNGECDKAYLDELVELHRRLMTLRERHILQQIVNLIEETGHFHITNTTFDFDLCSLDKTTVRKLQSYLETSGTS
Bfl-1 A1 inh – inhibitors of the anti-apoptotic protein A1, read as caspase activation; MEF A1-2A-BIM cells, Caspase-Glo 3/7 luminescence, 3 h; percent of clofoctol response, vehicle zero; AID 2462; caspase activation, % (test concentration not listed); hit rate 0.066% among 330,000;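 active means over half of replicate activation scores above 10%, or exactly half above 10 with the replicate mean above 10; inconclusive means replicate mean below 10 yet half the replicates above 10; inactive means over half of replicates below 10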;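 further: wells of about 30 µL received 50 nL stock; many hits fall short of the cut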
T cruzi repl – blocks replication of Trypanosoma cruzi; T. cruzi beta-gal in NIH3T3, luminescence, 90 h; inhibition, % (no concentration beside the values); hit rate 1.4% among 300,000; AID 1885;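 active means mean inhibition across valid replicates above about 55%, limit read from the data; inconclusive means mean below that limit but half or more replicates reach it; inactive means mean below it, under half of replicates reach it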;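 further: signal also drops with host cell toxicity which is not excluded here; 0% = plate median of DMSO wells and 100% = zero luminescence signal; higher percent means less beta-gal luminescence so fewer parasites; stock transfer was 50 nL into about 50 µL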
rRNA inh HTS – inhibits bacterial ribosomal RNA function over humanized ribosomes; E. coli WT GFP vs humanized-ribosome RFP mutants, fluorescence, 24 h; hits give low values; DMSO median 0, no signal -100; GFP signal change (wild-type ribosome), % (test concentration not listed); hit rate 1.6% among 350,000; AID 720706;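 active means significant combined selectivity score with lowered wild-type GFP, culture density cut under 30%, mutant RFP and density less affected; inactive means any of these conditions unmet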; further: one replicate is shown; some compounds called inactive have numbers as strong as hits
Vif A3G – HIV-1 Vif–A3G interaction blockers – biochemical, TR-FRET, GST-Vif 1-94, biotin-A3G peptide, dose response retest, primary screen (AID 1117319); TR-FRET GST-Vif / biotin-A3G peptide binding; higher % means a stronger effect; test concentration not given here; strong numbers were not always called active; inhibition, %, or IC50 in µM where a hit was titrated; hit rate 0.57% among 260,000;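 active means above the screen mean plus three standard deviations and confirmed in dose response; inconclusive means results disagree or hit not tested in dose response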;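 further: Vif residues 1-94 fused to GST binding biotinylated APOBEC3G peptide 110-148; 0% = full assay without inhibitor and 100% = GST in place of GST-Vif; retest series ran down from 100 µM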
Calb FLC – affects C. albicans growth with fluconazole; C. albicans CaCi-2 (fluconazole-resistant clinical isolate) + fluconazole, Alamar Blue growth, 48 h; growth inhibition, % (no concentration beside the values); hit rate 0.57% among 300,000; AID 1979;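 active means most replicates above 75%; inconclusive means exactly half above 75%; inactive means most below 75%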;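 further: all wells also contain fluconazole at 8 µg/ml as a sub-toxic cotreatment; 0% = median of DMSO wells and 100% = median of geldanamycin control wells; wells of about 8 µL received 7.5 nL stock; the first replicate is given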
rRNA inh HTS OD600 – also measured in rRNA inh HTS; calls as there; OD600 change, %; measured here: OD600 growth;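 optical density of the mix in the first replicate; 0 = DMSO median and -100 = no signal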
rRNA inh HTS RFP – further read-out of rRNA inh HTS, marked with its call; RFP signal change, %; measured here: RFP humanized mutant strains;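 first replicate; 0 = DMSO median and -100 = no signal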
An asterisk follows results filed as active; & = joins results of further samples. An excerpt; rates above refer to the full screens.

What do the screens show for `COc1ccc(-c2cc(C(F)(F)F)nc(SCC(=O)Nc3cc(C)on3)n2)cc1`?
RanGTP-Imp inh: 0.9; Beta apoptosis: -12; Bfl-1 A1 inh: inconclusive; T cruzi repl: 4; Vif A3G: -6%; Calb FLC: -8

Results for CCc1ccc(CC2S/C(=C(\C#N)C(C)=O)NC2=O)cc1 (stereo not given) ?
RanGTP-Imp inh: -2.2; Bfl-1 A1 inh: -0.4; T cruzi repl: -9; Vif A3G: inconclusive; Calb FLC: 1

How did COCc1c(C(=O)N2CCN(CCOc3ccccc3)CC2)oc2ccccc12 do in these assays?
Beta apoptosis: -2; AF4-AF9 inh: -18; Bfl-1 A1 inh: 1.2; rRNA inh HTS: -11; Vif A3G: -3%; rRNA inh HTS OD600: -22; rRNA inh HTS RFP: -0.6

What do the screens show for `O=C(c1cccc(F)c1)N1CCN(S(=O)(=O)c2ccccc2)CC1`?
RanGTP-Imp inh: -0.9; Beta apoptosis: -2; Bfl-1 A1 inh: 0.9; T cruzi repl: -6; Vif A3G: 22%; Calb FLC: -7

Results for COc1cc(C(=S)N2CCOCC2)ccc1OC(=O)c1cc([N+](=O)[O-])cc([N+](=O)[O-])c1 ?
RanGTP-Imp inh: -1.0; Bfl-1 A1 inh: 0.5; T cruzi repl: -16; Calb FLC: 23

What do the screens show for `Cc1ccc(Nc2nc(-c3cccs3)cs2)nc1`?
RanGTP-Imp inh: -2.0; Beta apoptosis: -1; AF4-AF9 inh: 11; Bfl-1 A1 inh: -4.1; T cruzi repl: 41; rRNA inh HTS: 12; Vif A3G: -3%; Calb FLC: -2; rRNA inh HTS OD600: 4; rRNA inh HTS RFP: -4.8

How did O=C(CCN1CCCCC1)Nn1c(=S)[nH]c2ccccc2c1=O do in these assays?
RanGTP-Imp inh: 8.3; Beta apoptosis: 11; Bfl-1 A1 inh: 0.7; T cruzi repl: -6; Vif A3G: -2%; Calb FLC: 26

What do the screens show for `O=S(=O)(NCc1ccco1)c1cnc(Cl)c(Cl)c1`?
RanGTP-Imp inh: -1.3; Beta apoptosis: -5; AF4-AF9 inh: -1.9; Bfl-1 A1 inh: 0.3; T cruzi repl: 43; rRNA inh HTS: 8; Vif A3G: -3%; Calb FLC: 9; rRNA inh HTS OD600: -5; rRNA inh HTS RFP: 1.3

What do the screens show for `O=S(=O)(NC1CCCCC1Sc1ncccn1)c1ccccc1` (stereo not given)?
RanGTP-Imp inh: -1.5; Beta apoptosis: -4; Bfl-1 A1 inh: -0.9; T cruzi repl: 5; Calb FLC: -8

Results for O=[N+]([O-])c1ccc(OCCOCCOc2ccc([N+](=O)[O-])cc2)cc1 ?
RanGTP-Imp inh: 1.6; Beta apoptosis: -2; AF4-AF9 inh: 7.3; Bfl-1 A1 inh: -0.4; T cruzi repl: 4; rRNA inh HTS: 5; Vif A3G: 13%; Calb FLC: -3; rRNA inh HTS OD600: 1; rRNA inh HTS RFP: -7.5

Results for O=C(Nc1cccc(NC(=O)c2ccc(-c3ccc(Br)cc3)o2)c1)c1ccccc1 ?
RanGTP-Imp inh: -0.1; Beta apoptosis: 3; Bfl-1 A1 inh: -0.5; T cruzi repl: 13; Vif A3G: 1%&-6%; Calb FLC: 9

Results for CCOCCCN(CCC#N)C(=O)C1CCN(S(=O)(=O)c2ccc(-n3cnnn3)cc2)CC1 ?
RanGTP-Imp inh: 3.8; Beta apoptosis: 2; AF4-AF9 inh: -4.6; Bfl-1 A1 inh: 0.1; T cruzi repl: -11; rRNA inh HTS: 6; Calb FLC: 4; rRNA inh HTS OD600: 5; rRNA inh HTS RFP: -1.6

Results for COc1ccc(C2(CNS(=O)(=O)c3ccc(C)cc3)CCOCC2)cc1 ?
RanGTP-Imp inh: -3.5; Beta apoptosis: -13; AF4-AF9 inh: -7.8; Bfl-1 A1 inh: 0.1; T cruzi repl: -8; rRNA inh HTS: -5; Vif A3G: -9%; Calb FLC: -15; rRNA inh HTS OD600: -4; rRNA inh HTS RFP: -2.3

What do the screens show for `C/C(=N\NC(=O)CCCNc1ccc(C)cc1)c1ccccn1`?
RanGTP-Imp inh: 1.6; Beta apoptosis: 54; AF4-AF9 inh: -0.2; Bfl-1 A1 inh: 0.1; T cruzi repl: 35; rRNA inh HTS: -13; Vif A3G: 8%; Calb FLC: -3; rRNA inh HTS OD600: 4; rRNA inh HTS RFP: 34

Results for O=C(NCCSc1ccccc1)c1cccnc1 ?
RanGTP-Imp inh: 3.3; Beta apoptosis: 3; Bfl-1 A1 inh: -0.3; T cruzi repl: -23; Vif A3G: -6%; Calb FLC: -8

What do the screens show for `COc1ccccc1-n1c(SCC(=O)N2CCCCC2)nc(O)c(Cc2ccccc2)c1=O`?
RanGTP-Imp inh: 0.7; Beta apoptosis: -7; AF4-AF9 inh: -6.5; Bfl-1 A1 inh: 0.1; T cruzi repl: -6; rRNA inh HTS: -1; Calb FLC: 0; rRNA inh HTS OD600: -5; rRNA inh HTS RFP: 1.6

How did CS(=O)(=O)c1ccc(Cl)c(NC(=O)COc2ccc3c(c2)CCC3)c1 do in these assays?
RanGTP-Imp inh: -2.4; Beta apoptosis: 3; AF4-AF9 inh: -5.8; Bfl-1 A1 inh: 0.2; T cruzi repl: -11; rRNA inh HTS: 0; Vif A3G: -4%; Calb FLC: -8; rRNA inh HTS OD600: 5; rRNA inh HTS RFP: 1.3

How did O=C1C2C3C=CC(C3=C(c3ccccc3)c3ccccc3)C2C(=O)N1CCO (stereo not given) do in these assays?
RanGTP-Imp inh: -2.8; Beta apoptosis: 0; Bfl-1 A1 inh: 0.9; T cruzi repl: 8; Vif A3G: 5%; Calb FLC: 14

What do the screens show for `CC1Sc2ccc(S(=O)(=O)CCC(=O)N3CCN(c4ccccc4F)CC3)cc2NC1=O` (stereo not given)?
RanGTP-Imp inh: -3.1; Beta apoptosis: 1; AF4-AF9 inh: -4.6; Bfl-1 A1 inh: -0.9; T cruzi repl: 17; rRNA inh HTS: 12; Calb FLC: -3; rRNA inh HTS OD600: 11; rRNA inh HTS RFP: 0.1

Results for O=C(O)C(NS(=O)(=O)c1cccc2nsnc12)c1ccccc1 (stereo not given) ?
RanGTP-Imp inh: -1.5; Beta apoptosis: -13; AF4-AF9 inh: -2.5; Bfl-1 A1 inh: -0.1; T cruzi repl: -6; rRNA inh HTS: 8; Vif A3G: -1%; Calb FLC: -3; rRNA inh HTS OD600: -4; rRNA inh HTS RFP: -0.5

How did O=C(NCc1csc2ccc(Cl)cc12)Nc1cccc2ccccc12 do in these assays?
RanGTP-Imp inh: 1.0; Beta apoptosis: -3; AF4-AF9 inh: -7.9; Bfl-1 A1 inh: 0.6; T cruzi repl: -10; rRNA inh HTS: 13; Vif A3G: 0%; Calb FLC: -6; rRNA inh HTS OD600: 1; rRNA inh HTS RFP: -0.1

Results for C/C(=N\Nc1nc(N2CCCCC2)nc(N2CCOCC2)n1)c1ccccc1O ?
RanGTP-Imp inh: -0.9; AF4-AF9 inh: 14; Bfl-1 A1 inh: -0.5; T cruzi repl: 55*; rRNA inh HTS: 0; Vif A3G: 4%; Calb FLC: 1; rRNA inh HTS OD600: -9; rRNA inh HTS RFP: -0.6

What do the screens show for `O=C1CCc2ccccc2N1`?
RanGTP-Imp inh: 0.0; Beta apoptosis: 0; AF4-AF9 inh: 0.0; Bfl-1 A1 inh: 0.1; T cruzi repl: -4; rRNA inh HTS: 6; Vif A3G: -4%; Calb FLC: -1; rRNA inh HTS OD600: 5; rRNA inh HTS RFP: 1.7

Results for Cc1cccc(-c2cc3nc4c(c(N5CCCC(O)C5)n3n2)CCC4)c1 (stereo not given) ?
RanGTP-Imp inh: 4.4; Beta apoptosis: 7; Bfl-1 A1 inh: -0.3; T cruzi repl: 23; Vif A3G: 0%; Calb FLC: 24

How did Cn1c(=O)oc2cc(S(=O)(=O)N3CCC(C(=O)N4CCN(c5ccc(F)cc5)CC4)CC3)ccc21 do in these assays?
RanGTP-Imp inh: 7.5; Beta apoptosis: 6; AF4-AF9 inh: 3.0; Bfl-1 A1 inh: 1.9; T cruzi repl: -16; rRNA inh HTS: -7; Vif A3G: -4%; Calb FLC: 3; rRNA inh HTS OD600: -7; rRNA inh HTS RFP: -3.0

What do the screens show for `COc1ccccc1CNC(=O)COC(=O)C1CCN(S(=O)(=O)c2ccc(C)c(C)c2)CC1`?
RanGTP-Imp inh: 4.9; AF4-AF9 inh: -1.8; Bfl-1 A1 inh: -1.2; T cruzi repl: -6; rRNA inh HTS: -9; Vif A3G: 4%; Calb FLC: 6; rRNA inh HTS OD600: -6; rRNA inh HTS RFP: 4.6

Results for COCCN(C(=O)CCCC(=O)Nc1ccccn1)C(C(=O)NC1CCCCC1)c1ccc(C)cc1 (stereo not given) ?
RanGTP-Imp inh: 0.7; Beta apoptosis: -4; Bfl-1 A1 inh: 0.3; T cruzi repl: 5; Vif A3G: -1%; Calb FLC: 6

Results for CCOc1ccccc1N(CC(=O)NC1CCCCC1)S(C)(=O)=O ?
RanGTP-Imp inh: -3.2; Bfl-1 A1 inh: -0.1; T cruzi repl: -3; Vif A3G: 23%; Calb FLC: 1

What do the screens show for `Cc1ccc(N=Nc2c(O)ccc3n[nH]nc23)cc1`?
RanGTP-Imp inh: -5.7; Beta apoptosis: 99*; AF4-AF9 inh: -1.8; Bfl-1 A1 inh: -8.5; T cruzi repl: 2; rRNA inh HTS: -5; Vif A3G: 5%; Calb FLC: 27; rRNA inh HTS OD600: 5; rRNA inh HTS RFP: 11

How did C/C(=N\NC(=O)c1ccccc1F)c1cccc(NC(=O)c2ccccc2)c1 do in these assays?
RanGTP-Imp inh: 11; Beta apoptosis: 0; AF4-AF9 inh: -9.3; Bfl-1 A1 inh: 1.2; T cruzi repl: -9; rRNA inh HTS: -2; Calb FLC: -14; rRNA inh HTS OD600: 10; rRNA inh HTS RFP: 0.0

What do the screens show for `COc1ccc(NS(=O)(=O)c2cccc(NC(=O)c3ccccn3)c2)cc1`?
RanGTP-Imp inh: -2.2; Beta apoptosis: 9; AF4-AF9 inh: -2.2; Bfl-1 A1 inh: 0.4; T cruzi repl: 7; rRNA inh HTS: -6; Calb FLC: -8; rRNA inh HTS OD600: -13; rRNA inh HTS RFP: 7.2

Results for Cc1cc(C(=O)CSc2nncn2C)c(C)n1-c1ccccc1 ?
RanGTP-Imp inh: -4.3; Beta apoptosis: -5; AF4-AF9 inh: 1.2; Bfl-1 A1 inh: -1.1; T cruzi repl: 3; rRNA inh HTS: 8; Vif A3G: -4%; Calb FLC: 0; rRNA inh HTS OD600: 11; rRNA inh HTS RFP: 0.0

Screening data deposited in PubChem BioAssay by several laboratories.
